# HCMV NEC inh – cytomegalovirus nuclear egress complex inhibition; 190,000 compounds, 0.15% hits; HTRF UL50-UL53 interaction, normalized percent inhibition; AID 1918969; inhibition, % (concentration not given with the values);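 active means both replicates at 50% or more, plus weaker picks with an unusually low signal ratio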;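 further: stock transfer was 100 nL into about 20 µL; 0% = negative control wells and 100% = wells with untagged competitor protein; inactives centre near -12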
# * marks the source's active call; other numbers are inactive results; & = joins results of further samples. Not all compounds are listed; the hit share may differ from the screen's.
molecule | HCMV NEC inh
CO[C@@H]1C[C@@H](C[C@H]2CC[C@H](C)[C@H]([C@@H](C)C(=O)O)O2)O[C@]2(O[C@](C)([C@H]3CC[C@@](C)([C@@H]4O[C@@H]([C@H]5O[C@@](O)(CO)[C@H](C)C[C@@H]5C)C[C@@H]4C)O3)C[C@H]2C)[C@@H]1C | 13
CC(C)(C)P(=O)(NCc1ccccc1)c1ccccc1 (centres undefined) | -26
CCCCC/C=C\C/C=C\C/C=C\C/C=C\CCCC(=O)N[C@@H](C)C(=O)O | -13&-13
CCCCCCCCCCCCCC(=O)O[C@@H]1[C@@H](C)[C@@]2(O)[C@@H](C=C(CO)C[C@]3(O)C(=O)C(C)=C[C@@H]23)[C@@H]2C(C)(C)[C@]12OC(C)=O | 1
O=C(C1CC(=O)N(C2CCCC2)C1)N1CCC2(CC1)OCCO2 (centres undefined) | -4
COCC1OC(=O)c2coc3c2[C@@]1(C)C1=C(C3=O)[C@@H]2CCC(=O)[C@@]2(C)CC1OC(C)=O (some centres undefined) | -83
CCCCCCC(=O)O[C@H]1CC[C@H]2[C@@H]3CC(=O)C4=CC(=O)CC[C@]4(C)[C@H]3CC[C@]12C | -32&-32
Cc1cccc2nc(CSC(=S)NCc3cccnc3)cn12 | -6
C[C@]12CC(=CO)C(=O)CC1CCC1C2CC[C@@]2(C)C1CC[C@]2(C)O (some centres undefined) | -52
N#Cc1ccc(N2CCN(C(=O)COc3ccc4[nH]cc(CCN)c4c3)CC2)cc1 | -4
CC(C)(C)OC(=O)c1ncn2c1[C@@H]1CCCN1C(=O)c1c(Br)cccc1-2 | 11
CNC(=O)Oc1ccccc1OC(C)C | -70
CN1CCC2=C[C@H](O)[C@H]3OC(=O)c4cc5c(cc4[C@H]3[C@@H]21)OCO5 | -32
CCCCC/C=C\C/C=C\C/C=C\C/C=C\CCCC(=O)Nc1ccc(O)cc1C | -13&-13
O=C(CCCN1CCC2(CC1)C(=O)N(Cc1cccc(F)c1)CN2c1ccccc1)c1ccc(F)cc1 | 0
COc1cc(NC2=NCCS2)c(Cl)cc1Cl | -6
COc1ccc2c3c([nH]c2c1)C(C)=NCC3 | -56
Cc1[nH]c2ccccc2c1CCNCc1ccco1 | 8
CC(C)(O)C(Cl)(Cl)Cl | -65
CCCCC/C=C\C[C@@H](/C=C/C=C\C/C=C\CCCC(=O)O)OO | -5
C=C1[C@@H](C)[C@H]2[C@H](Cc3ccccc3)NC(=O)[C@]23OC(=O)/C=C/[C@H](O)CCC[C@@H](C)C/C=C/[C@H]3[C@@H]1O | 11
CCCCCCCC/C=C\CCCCCCCC(=O)N[C@H](C)CO | -8&-8
CC1=C2C[C@H]3[C@@H](CC=C4C[C@@H](O)CC[C@@]43C)[C@@H]2CC[C@]12O[C@@H]1C[C@H](C)CN[C@H]1[C@H]2C | -10
CCN1C[C@]2(COC)CC[C@H](O)[C@]34C1[C@](O)([C@@H](OC)[C@H]23)[C@@]1(O)C[C@H](OC)[C@H]2C[C@@H]4[C@@H]1[C@H]2OC | -25
NC(CC(=O)O)C1CC=CCC1 (centres undefined) | 0
C=C/C=C\CC1=C[C@@H](OC(=O)[C@@H]2[C@@H](C=C(C)C)C2(C)C)CC1=O | -16
Cn1cc(C(=O)C(=O)N[C@H]2CN3CCC2CC3)c2ccccc21 | -23
O=C(N/N=C/c1ccc([N+](=O)[O-])o1)c1cc([N+](=O)[O-])cc([N+](=O)[O-])c1O | -37
C[C@H]1CC[C@@H]2[C@@H](C)[C@H]3[C@H](C[C@H]4[C@@H]5CC=C6C[C@@H](O[C@@H]7O[C@H](CO)[C@H](O)[C@H](O[C@@H]8O[C@H](CO)[C@@H](O)[C@H](O)[C@H]8O)[C@H]7O[C@@H]7O[C@@H](C)[C@H](O)[C@@H](O)[C@H]7O)CC[C@]6(C)[C@H]5CC[C@]34C)N2C1 | 7
COc1ccc(C(=O)O[C@H]2CC[C@@]3(C)[C@@H]4CC[C@H]5[C@]6(O)C[C@H](O)[C@@]7(O)[C@@H](CN8C[C@@H](C)CC[C@H]8[C@@]7(C)O)[C@]6(O)C[C@@]53O[C@]24O)cc1OC | -8
Cc1ccc(-n2c(C)nc3ccccc3c2=O)cc1 | -21
Cc1c(C(=O)c2cccc3ccccc23)c2cccc3c2n1[C@H](CN1CCOCC1)CO3 | -20&-20&1
CN=C(NS(=O)(=O)c1ccc(Cl)cc1)N1CC(c2ccccc2)C(c2ccc(Cl)cc2)=N1 (centres undefined) | -20&-20
C[C@]12CCC(=O)C=C1CC[C@@H]1[C@@H]2C(=O)C[C@]2(C)C(=O)CC[C@@H]12 | -6
CN1C2CCC1CC(=O)C2 | -23
CC[C@]1(O)CCC2C3CCC4=CCCCC4C3CC[C@@]21C (some centres undefined) | -9
COC1=C[C@@H]2C3=C([C@@H]2C1=O)[C@@H](NC(C)=O)CCc1cc(OC)c(OC)c(OC)c13 | -15
Clc1ccc(C2=CCCC3CCC2N3)cn1 (centres undefined) | -8
CCC1(CC)C(=O)C=CNC1=O | -7
CC1(C)C(C(=O)N2CCC(n3cc(C4CC4)nn3)CC2)C1(C)C | -9
O=C(NCC1CCOCC1)c1cnc(Nc2ccc(Cl)cc2Cl)nc1C(F)(F)F | 0
CCN(CC)C(=O)c1ccc(C2=CC3(CCNCC3)Oc3cccc(O)c32)cc1 | -6
Clc1ccc(CN2CCOCC2)cn1 | 1
CN1CCN(c2ccc(-c3ccno3)cc2)CC1 | -2
COc1cc2c(cc1O)C(CCc1ccc(Cl)cc1)N(C)CC2 (centres undefined) | 11
c1ccc2sc(Cc3cn4ccccc4n3)nc2c1 | -60
C/C1=C/C(=O)O[C@@H]2C[C@@H](CC[C@H](C)/C=C\CC1)O[C@@](O)([C@@H]1CSC(=O)N1)C2 | -9
Cc1[nH]c2ccc(Cl)cc2c1C1=CCNCC1 | -5
CN1C(CC(O)c2ccccc2)CCCC1CC(O)c1ccccc1 (centres undefined) | -27
CN1CCN(c2ccc3ccccc3n2)CC1 | -4
c1cc2cc(N3CCNCC3)ccc2cn1 | -28&-28
CC(=O)OC1CN2CCC1CC2 (centres undefined) | -39
C=C(C)[C@@H]1CCC(C)=C[C@H]1c1c(OC)cc(C)cc1OC | 7&-9&-9
C[n+]1ccsc1-c1ccccc1 | -13
O=C(C1CCC(=O)N1Cc1ccccc1Cl)N1CCC2(CC1)OCCO2 (centres undefined) | -1
OC12C3C4CC5C6C4C1C6C(C53)N2CCc1cccc(F)c1 (centres undefined) | 8
CCOc1cncc(/C=C/CCNC)c1 | 2
O=c1c2cc(F)ccc2ncn1Cc1cn2ccccc2n1 | -5
O=c1[nH]c2ccccc2n1C1CCN(Cc2ccc(-c3[nH]c4cc5ncnc5cc4nc3-c3ccccc3)cc2)CC1 | -11&-9&-7&-2&-2
C(=C\c1ccccc1)/CN1CCN(CCOC(c2ccccc2)c2ccccc2)CC1 | 12

# Next section
molecule | HCMV NEC inh
COc1ccc(/C=C\c2cc(OC)cc(OC)c2)cc1 | -23&-23
O=C1NC(=O)c2c1c1c3ccccc3n3c1c1c2c2ccccc2n1C1CCC3O1 | 1&2
Cc1ccc2c(c1)Cc1c(C(=O)NN3CCCCC3)nn(-c3ccc(Cl)cc3Cl)c1-2 | -4
C[C@H]1CCC/C=C/C2C[C@H](O)C[C@H]2[C@H](O)/C=C/C(=O)O1 (some centres undefined) | 4&-9
CC1=C2[C@H]3OC(=O)[C@@H](C)[C@@H]3CC[C@@]2(C)C=CC1=O | -14
C[C@]12CC[C@@H]3[C@@H](CC[C@@]45O[C@@H]4C(O)=C(C#N)C[C@]35C)[C@@H]1CCC2O (some centres undefined) | -14
C[C@]12CCC3c4ccc(OC(=O)N(CCCl)CCCl)cc4CCC3C1CC[C@@H]2O (some centres undefined) | -78
C#C[C@@]1(O)C=C[C@H]2[C@@H]3CCC4=CC(=O)CC[C@@H]4[C@@H]3CC[C@@]21CC | 4
Cc1sc2c(c1C)C(c1ccc(Cl)cc1)=NC(CC(=O)OC(C)(C)C)c1nnc(C)n1-2 (centres undefined) | -6
COC[C@H]([C@@H](O)[C@@H](O)C(=O)NCC[C@@H](C)c1nc(/C=C/C[C@H]2OC3(C[C@H](O)[C@H]2C)OC([C@@H](C[C@@H](O)[C@@H](C)[C@@H](O)[C@@H](C)/C=C(C)/C(C)=C/C=C/C(C)=C\C#N)OC)[C@@H](OP(=O)(O)O)C3(C)C)co1)N(C)C (some centres undefined) | -2
O=C1OC2(c3cc(Br)c(O)cc3Oc3c2cc(Br)c(O)[c]3[Hg])c2ccccc21 (centres undefined) | -74
Cc1sc2c(c1C)C(c1ccc(Cl)cc1)=NC(CC(N)=O)c1nnc(C)n1-2 (centres undefined) | 13
CCCCCCCCCCCCCCCCOC[C@@H](COP(=O)([O-])OCC[N+](C)(C)C)OC(C)=O | -10
COc1ccc(C(=O)OC2C[C@H]3CC[C@H](C2)N3C)cc1OC (some centres undefined) | -31
CCCCC/C=C\C/C=C\C/C=C\C/C=C\CCCC(=O)NC[C@H](C)O | -14&-14
CC[C@H]1CN2CCC1C[C@H]2[C@H](O)c1ccnc2ccc(OC)cc12 (some centres undefined) | -1
NCCSc1c[nH]c2ccccc12 | -10
CCCCCCCCCCCCCCCCSP(=O)([O-])OCC[N+](C)(C)C | -19&-19
N=C1c2ccccc2CN1c1ccc(O)c(C(=O)O)c1 | 8
C=C(C)[C@@H]1CCC(C)=C[C@H]1c1c(C)cc(O)cc1O | 4&4
C=CCN1CC[C@]23c4c5ccc(O)c4O[C@H]2/C(=N/NC(=O)c2ccccc2)CC[C@@]3(O)[C@H]1C5 | -9
C=C(C)CN1CC[C@]23c4c5ccc(O)c4OC2c2[nH]c4ccccc4c2C[C@@]3(O)C1C5 (some centres undefined) | -20
CC(C)(C)NCC(O)COc1cccc2[nH]c(C#N)cc12 (centres undefined) | -8
CCNc1nc(Cl)nc(NC(C)C)n1 | -6
CN1[C@@H]2CC[C@H]1CC(OC(=O)C1C=Nc3ccccc31)C2 (some centres undefined) | -13
Oc1ccc2c3c1O[C@H]1c4oc5ccccc5c4C[C@@]4(O)C(C2)N(CC2CC2)CC[C@]314 | -5
CCC1(C)CC(=O)NC(=O)C1 | 7&-1
CC(=O)OCC(=O)[C@H]1CC[C@H]2[C@@H]3CC[C@H]4C[C@H](O)CC[C@]4(C)[C@H]3C(=O)C[C@]12C | -27
COc1cccc2c1cc([N+](=O)[O-])c1c(C(=O)O)cc3c(c12)OCO3 | -50
COC(=O)[C@]1(O)C[C@@H]2O[C@@]1(C)n1c3ccccc3c3c4c(c5c6ccccc6n2c5c31)C(=O)NC4 | -23
CCCCC/C=C\C/C=C\C/C=C\C/C=C\CCCC(=O)Nc1cccc([N+](=O)[O-])c1 | -26&-26
CCCCC/C=C\C/C=C\C/C=C\C/C=C\CCCC(=O)NCc1ccc(O)c(OC)c1 | -21&-21&-15
CCC1C=CC=CCC(C)C(O)C(C)C(=O)C(C)C(O)C(C)C(=O)C(C)C(O)C(C)C=CC(=O)OC2C(C)C(CC1)O[C@@]1(CCC(C)C(CC(C)O)O1)C2C (some centres undefined) | -60
c1cc2c(cc1C1OC[C@H]3C(c4ccc5c(c4)OCO5)OC[C@H]13)OCO2 (some centres undefined) | -8
C[C@@]12N[C@@H](Cc3ccccc31)c1ccccc12 | -16&-56&-30
Cc1ccc2c(c1)C(c1ccc(F)cc1)=NCC(=O)N2 | -4
O=NN(O)N1CCC[C@H]1C(=O)O | -12&-12

# In the list so far, 11 contain an aryl methoxy group.
molecule | HCMV NEC inh
COc1cc(NC2=NCCS2)c(Cl)cc1Cl | -6
COc1ccc2c3c([nH]c2c1)C(C)=NCC3 | -56
COc1ccc(C(=O)O[C@H]2CC[C@@]3(C)[C@@H]4CC[C@H]5[C@]6(O)C[C@H](O)[C@@]7(O)[C@@H](CN8C[C@@H](C)CC[C@H]8[C@@]7(C)O)[C@]6(O)C[C@@]53O[C@]24O)cc1OC | -8
COC1=C[C@@H]2C3=C([C@@H]2C1=O)[C@@H](NC(C)=O)CCc1cc(OC)c(OC)c(OC)c13 | -15
COc1cc2c(cc1O)C(CCc1ccc(Cl)cc1)N(C)CC2 (centres undefined) | 11
C=C(C)[C@@H]1CCC(C)=C[C@H]1c1c(OC)cc(C)cc1OC | 7&-9&-9
COc1ccc(/C=C\c2cc(OC)cc(OC)c2)cc1 | -23&-23
COc1ccc(C(=O)OC2C[C@H]3CC[C@H](C2)N3C)cc1OC (some centres undefined) | -31
CC[C@H]1CN2CCC1C[C@H]2[C@H](O)c1ccnc2ccc(OC)cc12 (some centres undefined) | -1
COc1cccc2c1cc([N+](=O)[O-])c1c(C(=O)O)cc3c(c12)OCO3 | -50
CCCCC/C=C\C/C=C\C/C=C\C/C=C\CCCC(=O)NCc1ccc(O)c(OC)c1 | -21&-21&-15

# Assay outcomes as filed in PubChem.
